# Screening data as filed in PubChem.
# WNV protease inh: blocks West Nile virus NS2B-NS3 protease activity | P06935 | WNV NS2B-NS3 protease, fluorogenic substrate Ex360/Em465; hits give low values | z-score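 (tested at a level between 10 and 100 µM)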 | actives 0.18% (n = 65,000) | AID 577;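 active = z-score at -3 or under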;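 also: score is relative to mean and spread of the compound wells of a plate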
# Target sequence (P06935 1371-1501 limits assumed): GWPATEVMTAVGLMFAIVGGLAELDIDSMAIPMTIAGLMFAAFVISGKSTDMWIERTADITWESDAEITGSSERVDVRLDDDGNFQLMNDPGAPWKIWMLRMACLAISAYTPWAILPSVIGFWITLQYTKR
# Target sequence (P06935 1502-1679 limits assumed): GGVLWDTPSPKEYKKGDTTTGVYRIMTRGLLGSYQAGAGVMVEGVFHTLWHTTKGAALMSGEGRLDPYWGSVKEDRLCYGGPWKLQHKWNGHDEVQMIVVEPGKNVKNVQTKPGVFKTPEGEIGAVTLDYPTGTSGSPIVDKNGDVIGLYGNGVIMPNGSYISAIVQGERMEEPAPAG
# MT1-MMP reporter: inhibitors of MT1-MMP promoter transcription, cell-based, luciferase reporter, luminescence (AID 618) | actives 0.62% (n = 87,000) | calls from a first round at 10 µM; hits with a dose series show EC50 in µM | MT1-MMP promoter luciferase reporter cells, luminescence;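 active = over half of the reporter light lost at 10 µM or EC50 under 50 µM; inactive = the rest and hits that failed the dose series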;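 also: actives suppress MT1-MMP promoter-driven transcription so potencies describe inhibitors; HT1080 fibrosarcoma cells; overnight exposure; toxic or luciferase-blocking compounds were not removed from the actives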
# Hsc70: Hsc70 inhibitors, probe displacement, primary screen, biochemical, fluorescence polarization (AID 568); 83,000 tested, under 10 active; displacement, % at 20 µM; hits with a dose series show IC50 in µM; Hsc70 fluorescence polarization, probe displacement; higher % means a stronger effect; strong numbers were not always called active;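 active = displacement above 50% without optical interference and an IC50 on retest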;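 also: ATPase domain with a fluorescein-tagged ATP probe; 0% = vehicle and 100% = excess ADP; read after one hour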
# Active calls of the source: *; i = inactive; nt = not tested or not shown.
# Results follow in this order: MT1-MMP reporter	WNV protease inh	Hsc70
CC1CCN(S(=O)(=O)c2cccc(C(=O)Nc3ccccn3)c2)CC1
→ i	0.32	6.2%
O=C(CSc1nc2ccccc2o1)Nc1ccccc1
→ i	0.88	4.0%
COc1ccc(OC)c(S(=O)(=O)Nc2ccc(O)c3ccccc23)c1
→ i	-0.61	0.3%
O=S(=O)(NCc1cccnc1)c1cccc2nsnc12
→ i	-0.39	-4.3%
CCC(Sc1nc(=O)cc(N)n1CCc1ccccc1)C(=O)Nc1ccccc1C#N (stereo unspecified)
→ i	-0.35	-3.3%
N#Cc1ccc(C2=NC(C(F)(F)F)(C(F)(F)F)c3c(n(Cc4ccco4)c(=O)[nH]c3=O)N2)cc1
→ i	nt	2.5%
CCC(=NCCc1ccccc1)C1=C(O)CCC1=O
→ i	-0.58	2.1%
Cc1c(NC(=O)CCC(=O)N2CCOCC2)c(=O)n(-c2ccccc2)n1C
→ i	nt	1.2%
COc1ccc(OCCNC(=O)c2ccccc2OCC(=O)N2CCCCC2)cc1
→ i	0.06	-2.3%
CC(=O)c1coc2ccc(OCCN3CCCCC3)cc12
→ i	1.8	1.0%
O=C(Nc1ccccn1)C1CCN(S(=O)(=O)c2cccs2)CC1
→ i	0.66	2.6%
COc1ccc(N2CCN(C(=O)CSc3nc4cc(OC)c(OC)cc4cc3C#N)CC2)cc1
→ i	0.05	-0.8%
O=C(CCN1CCN(c2ccccc2)CC1)Nc1ccc(Cl)cc1
→ i	nt	-1.8%
CCc1ccc(OC(=O)c2ccn(CC)n2)cc1
→ i	-1.1	-0.9%
Cc1cccc(-n2c(SCC(=O)NC3CCCC3)nnc2-c2ccoc2C)c1
→ i	nt	1.7%
CCOc1ccc(N=C2SC(C(=O)O)CC(=O)N2C)cc1 (stereo unspecified)
→ i	-1.1	-12%
COC1=Cc2c(ccc3ccc(=O)oc23)OC1(C)C
→ i	1.8	-5.3%
CC(=O)Nc1ccc(S(=O)(=O)NCC2CCC(C(=O)NCCC(C)C)CC2)cc1 (stereo unspecified)
→ i	1.8	-11%
CCOC(=O)C(CC)(CCC(=O)O)c1csc(N)n1 (stereo unspecified)
→ i	-0.26	-0.9%
O=C(C1CCC(CNS(=O)(=O)c2cccc3cccnc23)CC1)N1CCCC1 (stereo unspecified)
→ i	0.21	3.0%

# Compound profiles (already shown):
# Entry for O=S(=O)(NCc1cccnc1)c1cccc2nsnc12 = MT1-MMP reporter: i; WNV protease inh: -0.39; Hsc70: -4.3%
# Entry for CCOc1ccc(N=C2SC(C(=O)O)CC(=O)N2C)cc1 (stereo unspecified) = MT1-MMP reporter: i; WNV protease inh: -1.1; Hsc70: -12%

# (listing goes on)
# Results follow in this order: MT1-MMP reporter	WNV protease inh	Hsc70
C=CCS/C(=N\n1cnc2ccccc2c1=O)N1CCCCC1
→ i	1.5	5.5%
Nc1c(Cl)cc(Cl)cc1C(=O)OCC(=O)NC1CC1
→ i	nt	0.3%
O=C(CSc1ccc2c(c1)OCCO2)NCCN1C(=O)CSC1=O
→ i	-0.24	-0.9%
CC(C)(O)C#Cc1ccc(C(=O)N2CCCC2C(=O)O)s1 (stereo unspecified)
→ i	0.85	2.8%
O=C(Nc1ccccc1)N1CCCCC1c1cccnc1 (stereo unspecified)
→ i	0.3	-5.5%
CCCCN(C(=O)Cn1nnc2ccccc21)C(C(=O)NCCOC)c1ccc(OC)cc1 (stereo unspecified)
→ i	0.08	-0.3%
CC1(C)CC(=O)C2=C(C1)NCN(Cc1ccccc1)C2
→ i	0.01	3.3%
N#CCSc1nc2c(c(=O)n1Cc1ccco1)C1(CCCC1)Cc1ccccc1-2
→ i	1.7	2.0%
O=C(CSCc1cccc(Cl)c1)N1CCN(Cc2ccc3c(c2)OCO3)CC1
→ i	nt	-1.6%
c1ccc(-c2nc(NCC3CCCO3)c3ccccc3n2)nc1 (stereo unspecified)
→ i	-0.07	-3.0%
O=C(CCn1nc(-c2ccccc2)c2ccccc2c1=O)N1CCN(c2ccccc2)CC1
→ i	-0.48	4.1%
COc1cccc(NC(=O)c2ccccc2NS(C)(=O)=O)c1
→ i	0.28	2.4%
CCOC(=O)c1ccc(N2C(=O)CC(N3CC(C)OC(C)C3)C2=O)cc1 (stereo unspecified)
→ i	2.6	1.3%
Cc1ccc(S(=O)(=O)N2CCN(C(=O)CN3CCCCC3)C2)cc1
→ i	nt	-3.3%
CCOC(=O)c1c(C)c(C(=O)NCC2CCCO2)c(C)n1C (stereo unspecified)
→ i	0.03	1.8%
COC(=O)COc1cccc(NC(=O)c2ccccc2)c1
→ i	0.59	-4.4%
O=C1C2C3C=CC(C3)C2C(=O)N1CCCO (stereo unspecified)
→ i	0.2	-1.6%
CC12C(=O)N(Cc3ccccc3)C(=O)C1C1C=CC2C1 (stereo unspecified)
→ i	-1.8	-3.8%
COc1ccc(S(=O)(=O)Nc2nc3ccccc3s2)cc1OC
→ i	nt	0.6%
COCCn1c(SCc2ccc(C(=O)OC)o2)nc2cc(Cl)ccc2c1=O
→ i	0.96	1.2%

# Carrying on.
# Results follow in this order: MT1-MMP reporter	WNV protease inh	Hsc70
Cc1ccc(C(=O)NNS(=O)(=O)c2ccccc2[N+](=O)[O-])cc1
→ i	nt	7.4%
Cc1ccc(-c2nn3c(C)nnc3c3ccccc23)cc1S(=O)(=O)N(C)CCO
→ i	nt	1.6%
Cc1cccc(NC(=O)C2CCCN(C(=O)NC3CCCCC3)C2)c1C (stereo unspecified)
→ i	-0.53	-0.4%
CCOc1ccc(C(=O)Nc2ccc(NC(=O)c3ccco3)c(Cl)c2)cc1Cl
→ i	nt	0.7%
CCOc1cccc(NC(=O)CSc2nncn2N)c1
→ i	0.46	-2.6%
COCCNC(=O)COC(=O)/C=C/c1c(C)nn(Cc2ccc(Cl)cc2Cl)c1Cl
→ i	nt	3.2%
Nc1nc(SCc2ccccc2Cl)[nH]c(=O)c1-c1ccccc1
→ i	nt	0.2%
CN(C)S(=O)(=O)c1ccc(NC(=O)C2COc3ccccc3O2)cc1 (stereo unspecified)
→ i	0.77	0.2%
CCn1c(CNC(=O)c2ccccc2)nc2ccccc21
→ i	-0.58	-5.5%
O=C(c1cccc(N2C(=O)C3C4C=CC(C4)C3C2=O)c1)N1CCCCCC1 (stereo unspecified)
→ i	nt	-1.2%
CCOC(=O)c1cc2c(=O)n3ccccc3nc2n(CCOC)c1=NC(=O)C(C)(C)C
→ i	0.55	0.1%
CN(c1ccccc1)C(c1ccc(F)cc1)c1nnnn1C1CCCC1 (stereo unspecified)
→ i	2.3	-4.6%
Oc1ccc(-c2nc3ccccn3c2NCc2ccc3c(c2)OCO3)cc1
→ i	-0.15	0.0%
Nc1cc(C(=O)O)ccc1Nc1ccccc1
→ i	0.53	-0.7%
COc1ccc(-c2oc(/N=C/N3CCOCC3)c(C#N)c2-c2ccc(OC)cc2)cc1
→ i	0.56	3.9%
COc1ccc(C)cc1NC(=O)CSc1nnc(-c2ccc(Br)cc2)o1
→ i	0.36	7.4%
CS(=O)(=O)N(CC(O)Cn1c2ccccc2c2ccccc21)c1cccc2ccccc12 (stereo unspecified)
→ i	nt	2.6%
C=CCn1c(SCC(=O)c2[nH]c(C)c(C(C)=O)c2C)nnc1-c1ccncc1
→ i	nt	-6.9%
COC(=O)c1ccc(C)c(NC(=O)CN(c2cc(OC)ccc2OC)S(C)(=O)=O)c1
→ i	-0.61	2.8%
COc1cccc(Nc2ncccc2C(=O)Nc2ccccc2)c1
→ i	nt	5.9%

# Four of the compounds above, tab-delimited.
Molecule	MT1-MMP reporter	WNV protease inh	Hsc70
Nc1cc(C(=O)O)ccc1Nc1ccccc1	i	0.53	-0.7%
COc1ccc(-c2oc(/N=C/N3CCOCC3)c(C#N)c2-c2ccc(OC)cc2)cc1	i	0.56	3.9%
COc1ccc(C)cc1NC(=O)CSc1nnc(-c2ccc(Br)cc2)o1	i	0.36	7.4%
CS(=O)(=O)N(CC(O)Cn1c2ccccc2c2ccccc21)c1cccc2ccccc12 (stereo unspecified)	i	nt	2.6%

# Going on with the list.
# Results follow in this order: MT1-MMP reporter	WNV protease inh	Hsc70
Cc1cccc(N2CCN(S(C)(=O)=O)CC2)c1C
→ i	1.9	3.1%
COC(=O)C1=C(Nc2ccc(C)cc2)C=C(C)C(C(=O)OC)C1c1cccc(OC)c1 (stereo unspecified)
→ i	nt	5.6%
COc1cccc2c(=O)c(C/C=C(/C)Cl)c(C)[nH]c12
→ i	1.8	-1.9%
c1coc(CN2CN=C(Nc3nc4ccccc4s3)NC2)c1
→ i	0.54	5.7%
O=C(CN1CCCCC1)Nc1ccc(S(=O)(=O)N2CCOCC2)cc1
→ i	nt	2.2%
O=C1C2C3C=CC(C3)C2C(=O)N1CNc1ccccc1 (stereo unspecified)
→ i	nt	4.0%
COc1ccc(Cc2nc(-c3ccccc3)no2)cc1
→ i	-0.45	4.8%
CCOC(=O)Cc1c(C)nc2c(C#N)c(C)nn2c1C
→ i	1.3	-0.1%
CCOc1cc(NC(=O)C2CCCO2)c(OCC)cc1NC(C)=O (stereo unspecified)
→ i	-1.8	-1.7%
COc1cc(NC(=O)c2c(F)c(F)c(F)c(F)c2F)c(OC)cc1Cl
→ i	0.82	6.2%
CC1Oc2ccccc2N(Cc2ccccc2Cl)C1=O (stereo unspecified)
→ i	-0.57	3.7%
CC1CC(C)CN(C(=O)Cn2c(=O)n(CCCCC(=O)NCc3ccco3)c(=O)c3ccccc32)C1 (stereo unspecified)
→ i	0.07	5.7%
CCOc1ccc(-c2nnn(CC(=O)NCc3ccc(F)cc3)n2)cc1OCC
→ i	-1.2	-8.0%
COc1ccc(C(=O)NC2CCCCCC2)cc1S(=O)(=O)N1CCCc2ccccc21
→ i	nt	5.1%
CC1CC(C)CN(C(=O)COC(=O)c2cc3ccccc3cc2O)C1 (stereo unspecified)
→ i	-0.18	6.3%
CC(C)(C)c1ccc(COn2c(=O)c(-c3ccco3)[n+]([O-])c3ccccc32)cc1
→ i	nt	-26%
Oc1ccc(CN2CCCCC2)nc1-c1ccccc1
→ i	-0.95	1.2%
Cc1nnc(SCc2ccc(Cl)cc2)n1CC1CCCO1 (stereo unspecified)
→ i	0.64	-2.7%
COc1cc2c(cc1NCc1ccccn1)oc1ccccc12
→ i	-1.1	-9.5%
COc1ccc(NC(=O)N(Cc2ccc(C)cc2)Cc2ccccn2)c(OC)c1
→ i	0.6	2.9%

# Carrying on:
# Results follow in this order: MT1-MMP reporter	WNV protease inh	Hsc70
CCOC(=O)CSc1nnc(Cn2nnc(-c3ccccc3)n2)n1C
→ i	-1.1	1.0%
Nc1ccc2nc(-c3ccccn3)[nH]c2c1
→ i	nt	0.5%
COc1cc2cc(CN(CCO)S(=O)(=O)c3ccccc3Cl)c(=O)[nH]c2cc1OC
→ i	-0.68	3.8%
CCOC(=O)C1CCCCN1Cc1cc(OC)ccc1OC (stereo unspecified)
→ i	nt	-4.0%
CSc1nc2c(cnn2-c2ccc(C)c(C)c2)c(=O)[nH]1
→ i	0.23	3.8%
c1ccc2c(c1)[nH]c1c(NCC3CCCO3)ncnc12 (stereo unspecified)
→ i	-0.44	-5.3%
COC(=O)NCc1ccc(Cl)c(Cl)c1
→ i	-0.79	-0.6%
COc1ccc(NC(=O)c2ccccc2NS(C)(=O)=O)cc1OC
→ i	0.31	-2.2%
CCC1c2ccc(C)n2CCN1C(=O)Nc1ccc(F)cc1 (stereo unspecified)
→ i	1.2	4.0%
CN(C)CCCNC(=O)CC(c1ccccc1)c1ccccc1O (stereo unspecified)
→ i	0.49	1.7%
CCOC(=O)Nc1nnc(-c2ccc(OC)cc2)s1
→ i	nt	-3.2%
CCC1=C(C(=O)OC)C(c2cc(OC)ccc2OC)C(C#N)=C(N)O1 (stereo unspecified)
→ i	-0.18	2.8%
Cc1nn(-c2ccccn2)c2c1-c1nc(N)ncc1CC2
→ i	0.31	1.7%
O=C(Nc1cn(-c2ccccc2)nc1-c1cccs1)c1ccco1
→ i	0.88	-5.2%
Cc1cccc(Cc2nnc(NC(=O)c3cccc(S(=O)(=O)N4CCOCC4)c3)s2)c1
→ i	0.11	0.5%
c1ccc(CSc2nnc(-c3ccncc3)o2)cc1
→ i	0.49	1.4%
C/C(O)=c1/ccc2cccc3nc(C)nc1c23
→ i	0.09	99%
Cc1cc(C)c(OCCCCCNCCO)c(C)c1
→ i	nt	6.4%
CCOC(=O)C1=C(c2ccccc2)OC(N)=C(C#N)C1C(C)C (stereo unspecified)
→ i	-0.5	2.6%
O=C(Nc1nncs1)c1ccc(N2C(=O)C3C4C=CC(C4)C3C2=O)cc1 (stereo unspecified)
→ i	-0.75	-3.7%

# Later entries:
# Results follow in this order: MT1-MMP reporter	WNV protease inh	Hsc70
C=CCn1c(NC(=O)c2ccc(C)cc2)c(C#N)sc1=N
→ i	-0.29	1.4%
CC(C)(C)C(=O)N(CCN(C(=O)C(C)(C)C)c1ccccc1)c1ccccc1
→ i	nt	2.6%
CC1(C)C(c2cccs2)=[N+]([O-])C2(CCCCC/C2=N\NC(N)=S)N1O (stereo unspecified)
→ i	nt	1.3%
COc1ccc(C2C(C(=O)c3cccs3)=C(O)C(=O)N2c2nncs2)cc1 (stereo unspecified)
→ i	-0.94	136%
Nc1nnc(-c2cc3ccccc3oc2=O)s1
→ i	-0.47	-1.2%
CN(C)S(=O)(=O)c1ccc(C(=O)N2CCOCC2)cc1
→ i	nt	5.3%

# These rows are one share of the data, so the mix of outcomes need not match the whole.
